Anthrax LT inh: blocks cellular internalization of anthrax lethal toxin; AID 912; hit rate 0.67% among 70,000; Potency, µM (series often up to 40 µM), for the others: at the highest dose activity change, negative = inhibition, hits mostly inhibitors; Cells, anthrax lethal toxin internalization, FRET ratio (460/530); active = well fitted falling ratio curve with the 530 nm signal flat; inconclusive = other ratio curves, or a change in one channel alone; inactive = flat curves in the ratio and both channels; the % refers to the ratio; also: % is scaled to controls: 0 for no effect and ±100 for the full control effect; nearly all actives have a fitted effect of over 50% in size; tested in ME-180 cells; beta-lactamase reporter
Prx2 Sm inh: blocks S. mansoni peroxiredoxin 2 enzymatic activity. hit rate 0.07% among 65,000. S. mansoni Prx2 activity coupled to TGR/GSH (TGR is thioredoxin glutathione reductase), NADPH fluorescence loss, qHTS; some inactives read as strong as hits. AID 448. Potency, µM; active means full or partial inhibition curve with a strong effect at the top dose; inconclusive means weaker partial or single-point curve; inactive means no accepted curve; also: series up to 57 µM; many of its hits are not listed in these tables
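Enzyme mix: 100 uM NADPH, 25 nM TGR, 700 uM GSH, 50 nM Prx2 in 100 mM phosphate pH 7.4, 10 mM EDTA, 0.01% Tween-20. 15 min RT with compound; NADPH/GSH added, H2O2 starts reaction; NADPH fluorescence read 8 min.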
Starred values were filed as active, the others as inactive; & = joins results of further samples; [ ] = remark or other dose. Potency is read from the fitted curve at half-maximal effect. A portion of the library, so the mix of outcomes need not match the whole.

How did O=C(Cn1cnc2sc(-c3ccccc3)cc2c1=O)NCc1ccco1 do in these assays?
Anthrax LT inh: -26%; Prx2 Sm inh: >57

Results for CC(C)(C)NC(=O)c1sccc1C(=O)O ?
Anthrax LT inh: 6%; Prx2 Sm inh: >57

What do the screens show for `COc1cccc(N2C(=O)NC(=O)C3(Cc4cc(C)ccc4N(C)C3)C2=O)c1` (configuration not stated)?
Prx2 Sm inh: >57

How did O=C(c1cc(C(F)(F)F)cc(C(F)(F)F)c1)N1CCC[C@@]2(CCN(Cc3ccncc3)C2)C1 do in these assays?
Anthrax LT inh: -8%; Prx2 Sm inh: >57

How did COc1ccc(NC(=O)CNc2cccc(C#N)c2)cc1Cl do in these assays?
Anthrax LT inh: -4%; Prx2 Sm inh: >57

How did O=c1nc2n(c3c4c(sc13)CCC4)CCC2 do in these assays?
Anthrax LT inh: 2%; Prx2 Sm inh: >57

What do the screens show for `Nc1nc2c3ccccc3nc(C3CC3)n2n1`?
Anthrax LT inh: -7%; Prx2 Sm inh: >57

How did COc1ccccc1-n1nnnc1S(=O)(=O)Cc1ccc(Cl)cc1 do in these assays?
Anthrax LT inh: inconclusive

How did Cn1ccnc1SCC(=O)N(C1CCCCC1)C1CCCCC1 do in these assays?
Anthrax LT inh: 0%; Prx2 Sm inh: >57

Results for Cc1ccc(C)c(S(=O)(=O)NC(CC(C)C)C(=O)O)c1 (configuration not stated) ?
Anthrax LT inh: 15%; Prx2 Sm inh: >57

Random excerpt: 3 records from the list.
Results for Cc1ccc(C)c(S(=O)(=O)NC(CC(C)C)C(=O)O)c1 (configuration not stated) ?
Anthrax LT inh: 15%; Prx2 Sm inh: >57

How did O=C(Cn1cnc2sc(-c3ccccc3)cc2c1=O)NCc1ccco1 do in these assays?
Anthrax LT inh: -26%; Prx2 Sm inh: >57

How did O=c1nc2n(c3c4c(sc13)CCC4)CCC2 do in these assays?
Anthrax LT inh: 2%; Prx2 Sm inh: >57

(listing goes on)
Results for COC(=O)[C@@H](NC(=O)Nc1ccccc1F)C(C)C ?
Anthrax LT inh: 11%; Prx2 Sm inh: >57

What do the screens show for `CC(=O)Nc1nc(CC(C)C)cc(-c2ccco2)c1C#N`?
Anthrax LT inh: 5%; Prx2 Sm inh: >57

Results for O=C(O)c1cc2ccc3ccccc3c2[nH]1 ?
Anthrax LT inh: -2%; Prx2 Sm inh: >57

Results for Fc1cccc2sc(Nc3nnc(-c4ccccc4)o3)nc12 ?
Anthrax LT inh: -2%; Prx2 Sm inh: >57

Results for COc1ccccc1N1CCNCC1 ?
Anthrax LT inh: -5%; Prx2 Sm inh: >57

How did COC(=O)Cn1cc(C(=O)OC)c2ccccc21 do in these assays?
Anthrax LT inh: 5%; Prx2 Sm inh: >57

Results for O=C(CC1Oc2ccccc2NC1=O)NCc1ccc(Cl)cc1 (configuration not stated) ?
Anthrax LT inh: -7%; Prx2 Sm inh: >57

How did COc1ccc(-c2nnn(CC(=O)N(CC(=O)NCCC(C)C)Cc3cccs3)n2)cc1OC do in these assays?
Anthrax LT inh: -5%; Prx2 Sm inh: >57

Results for O=C1OCCC1Sc1nc2ccccc2[nH]1 (configuration not stated) ?
Anthrax LT inh: inconclusive; Prx2 Sm inh: >57

Results for COC(=O)C1C2C=CC3(CN(CC4CCCO4)C(=O)C13)O2 (configuration not stated) ?
Anthrax LT inh: -5%; Prx2 Sm inh: >57

How did Cc1c(NC(=O)C(C)OC(=O)CC2Sc3ccccc3NC2=O)c(=O)n(-c2ccccc2)n1C (configuration not stated) do in these assays?
Anthrax LT inh: 8%; Prx2 Sm inh: >57

What do the screens show for `O=C(O)C1CCN(S(=O)(=O)c2cccnc2)CC1`?
Anthrax LT inh: 6%; Prx2 Sm inh: >57

What do the screens show for `CNc1ccc(O)cc1`?
Anthrax LT inh: inconclusive

What do the screens show for `Cn1c2ccccc2c2c(C(=O)NCc3ccco3)cn(C3CCCCC3)c(=O)c21`?
Anthrax LT inh: 0%; Prx2 Sm inh: >57

How did COc1cccc(-c2cc(C(=O)Nn3cnnc3)c3ccccc3n2)c1 do in these assays?
Anthrax LT inh: -5%; Prx2 Sm inh: >57

What do the screens show for `CCCCCCC1=Cc2cc(OC)c(OC)cc2C(C(C(C)=O)C(=O)OC)O1` (configuration not stated)?
Anthrax LT inh: -9%[8 µM]

What do the screens show for `O=C(NCc1ccncc1)C12CC3CC(CC(C3)C1)C2`?
Anthrax LT inh: -11%; Prx2 Sm inh: >57

How did Cc1cccc(-c2noc(CN(C(=O)c3ccc(Br)o3)C(C)C)n2)c1 do in these assays?
Anthrax LT inh: -12%; Prx2 Sm inh: >57

What do the screens show for `COc1ccc(-c2csc(N3CCN(C(=O)c4ccco4)CC3)n2)cc1`?
Anthrax LT inh: inconclusive; Prx2 Sm inh: >57

Results for C=CCOC(=O)C1=C(C)NC(=O)NC1C1CC=CCC1 (configuration not stated) ?
Anthrax LT inh: 6%

Filtered by structure, those above with a COOH group (4)
Results for CC(C)(C)NC(=O)c1sccc1C(=O)O ?
Anthrax LT inh: 6%; Prx2 Sm inh: >57

Results for Cc1ccc(C)c(S(=O)(=O)NC(CC(C)C)C(=O)O)c1 (configuration not stated) ?
Anthrax LT inh: 15%; Prx2 Sm inh: >57

Results for O=C(O)c1cc2ccc3ccccc3c2[nH]1 ?
Anthrax LT inh: -2%; Prx2 Sm inh: >57

What do the screens show for `O=C(O)C1CCN(S(=O)(=O)c2cccnc2)CC1`?
Anthrax LT inh: 6%; Prx2 Sm inh: >57

Following part:
How did Cc1cc(NCCCN2CCOCC2)n2ncc(-c3ccccc3)c2n1 do in these assays?
Anthrax LT inh: inconclusive; Prx2 Sm inh: >57

Results for CCOC(=O)N1CCN(C(=O)C(C)(C)Oc2ccc(Cl)cc2)CC1 ?
Anthrax LT inh: -24%; Prx2 Sm inh: >57

What do the screens show for `CN(C)S(=O)(=O)c1ccc2oc(SCC(=O)NCC(F)(F)F)nc2c1`?
Anthrax LT inh: 4%; Prx2 Sm inh: >57

Results for Cc1csc2ncc(C(=O)NCc3ccco3)c(=O)n12 ?
Anthrax LT inh: -5%; Prx2 Sm inh: >57

Results for O=C(CCN1CCc2ccccc2C1)Nc1ccccc1F ?
Anthrax LT inh: -1%; Prx2 Sm inh: >57

Results for COc1ccc(Cc2nccc3cc(OC)c(OC)cc23)cc1OC ?
Anthrax LT inh: 5%; Prx2 Sm inh: >57&>57&>57

What do the screens show for `CCSc1nc2ccccc2n1CCC(=O)O`?
Anthrax LT inh: 9%; Prx2 Sm inh: >57

What do the screens show for `O=C(Nc1ccccc1)N1CCCN(Cc2ccccc2F)C1`?
Anthrax LT inh: -22%; Prx2 Sm inh: >57

How did CCOC(=O)C(NC(=O)c1ccc(OC)cc1)(OCC1(CC)COC1)C(F)(F)F (configuration not stated) do in these assays?
Anthrax LT inh: inconclusive; Prx2 Sm inh: >57

Results for COc1ccccc1N(CC(=O)NC1CCCC1)C(=O)CCC(=O)Nc1cc(C)on1 ?
Anthrax LT inh: inconclusive; Prx2 Sm inh: >57

What do the screens show for `Cn1c(=O)n(Cc2ccc(F)cc2)c(=O)c2c1nc1n2CCCN1Cc1ccccc1`?
Prx2 Sm inh: >57

What do the screens show for `COc1ccc(NC(=O)c2cc(-c3cc(C)ccc3O)n[nH]2)cc1Cl`?
Anthrax LT inh: inconclusive; Prx2 Sm inh: >57

How did COc1ccccc1-c1nc(NCc2cccs2)c2ccccc2n1 do in these assays?
Anthrax LT inh: inconclusive; Prx2 Sm inh: >57

Results for CCCS(=O)(=O)N1CCN(Cc2ccc(OCc3ccccc3)c(OC)c2)CC1 ?
Anthrax LT inh: 3%; Prx2 Sm inh: >57

Results for O=C(Nc1nn(Cc2ccccc2F)cc1Br)c1cccs1 ?
Anthrax LT inh: 3%; Prx2 Sm inh: >57

What do the screens show for `CCOC(=O)N1CCN(C(=O)c2cccc(NC(=O)c3ccco3)c2)CC1`?
Prx2 Sm inh: >57

What do the screens show for `O=C(COc1ccc(Cl)cc1Cl)NC(=O)N1CCCCC1`?
Anthrax LT inh: 0%; Prx2 Sm inh: >57

Results for CC(C)[C@H](CO)Nc1nc(Nc2cccc(Cl)c2)c2ncn(C(C)C)c2n1 ?
Anthrax LT inh: 13µM*; Prx2 Sm inh: >57&>57

How did O=C(c1cnn2c1NC(c1ccc(Br)cc1)CC2C(F)(F)F)N1CCN2CCCC2C1 (configuration not stated) do in these assays?
Anthrax LT inh: inconclusive; Prx2 Sm inh: >57

Results for CCC(=O)Nc1c2c(nn1-c1ccccc1C)CSC2 ?
Anthrax LT inh: -3%

How did CCN1C(=S)SC(=O)C1=C1C=C(C)N(CCO)C(C)=C1 do in these assays?
Anthrax LT inh: -16%; Prx2 Sm inh: inconclusive

Results for COc1cccc([C@H]2Oc3ccc(OC)cc3/C(=N\O[C@@H]3O[C@H](COC(C)=O)[C@H](OC(C)=O)[C@H](OC(C)=O)[C@H]3OC(C)=O)[C@@H]2O)c1 ?
Anthrax LT inh: -19%[8 µM]

What do the screens show for `CCN1C(=O)C(NC(C)=O)c2cc(Br)ccc21` (configuration not stated)?
Anthrax LT inh: 3%; Prx2 Sm inh: >57

What do the screens show for `O=C(COc1cccc(OC(F)F)c1)Nc1ccc(SC(F)F)cc1`?
Anthrax LT inh: inconclusive; Prx2 Sm inh: >57

Results for Cc1nn(CC(=O)NC(C)c2ccccc2)c(=O)c2ccccc12 (configuration not stated) ?
Anthrax LT inh: 7%; Prx2 Sm inh: >57

What do the screens show for `Nc1nc(SCc2ccccc2)c2ncn(Cc3ccccc3)c2n1`?
Anthrax LT inh: -2%[8 µM]; Prx2 Sm inh: >57

What do the screens show for `O=C(N1CCOCC1)N1CCC(n2nnc3ccccc32)CC1`?
Anthrax LT inh: 0%; Prx2 Sm inh: >57

How did CCOC(=O)C1CCCN(c2c(NCC3CCCN3CC)c(=O)c2=O)C1 (configuration not stated) do in these assays?
Anthrax LT inh: -11%; Prx2 Sm inh: >57

How did COC(=O)C(CC(C)C)Oc1ccc2c(C)cc(=O)oc2c1 (configuration not stated) do in these assays?
Anthrax LT inh: -1%

How did COc1ccccc1NC1=NC(c2ccc(Cl)cc2)N=C(N)N1 (configuration not stated) do in these assays?
Anthrax LT inh: -21%; Prx2 Sm inh: >57

How did CCOC(=O)N1CCC(NC(=O)c2ccc3c(=O)n4c(nc3c2)CCCC4)CC1 do in these assays?
Anthrax LT inh: inconclusive; Prx2 Sm inh: >57

How did O=C1CCC(C(=O)N(Cc2ccco2)C2(C(=O)NC3CCCC3)CCCCC2)N1 (configuration not stated) do in these assays?
Anthrax LT inh: -5%; Prx2 Sm inh: >57

Results for O=C(NC1CCCc2ccccc21)C1CCN(S(=O)(=O)c2cccc3nsnc23)CC1 (configuration not stated) ?
Anthrax LT inh: 13%; Prx2 Sm inh: >57

What do the screens show for `Cc1cc2ncn(S(=O)(=O)N3CCCCC3)c2cc1C`?
Anthrax LT inh: -10%; Prx2 Sm inh: >57

How did O=C(CCC(=O)N1CCc2ccccc21)Nc1ccccc1 do in these assays?
Anthrax LT inh: 2%; Prx2 Sm inh: >57

Results for Cc1nn(-c2ccccc2)c2c1C(O)n1c(nc3ccccc31)S2 (configuration not stated) ?
Anthrax LT inh: -21%; Prx2 Sm inh: >57

Results for COc1cc2c(C(=O)N3CCN(C)CC3)c(C)oc2cc1Br ?
Anthrax LT inh: 15%; Prx2 Sm inh: >57

What do the screens show for `CC(C)C(=O)Nc1ccc(C(=O)N2CCN(C(=O)c3ccco3)CC2)cc1`?
Anthrax LT inh: -1%; Prx2 Sm inh: >57

Results for CCn1c(=N)n(CC(=O)c2ccco2)c2ccccc21 ?
Anthrax LT inh: -25%; Prx2 Sm inh: >57

Results for COCCNC(=O)c1ccc(NS(=O)(=O)c2cc(C)ccc2C)cc1 ?
Anthrax LT inh: -2%; Prx2 Sm inh: >57

Results for COc1cc(NC(=O)c2ccc(Br)o2)ccc1NC(=O)c1ccccc1Cl ?
Anthrax LT inh: inconclusive; Prx2 Sm inh: >57

Results for CC1(C)CC(=O)C2=C(C1)NC(=O)CC2c1cc(F)ccc1F (configuration not stated) ?
Anthrax LT inh: 13%; Prx2 Sm inh: >57

How did [O-]/[N+](=C\c1ccc(OC(F)F)cc1)c1ccccc1 do in these assays?
Anthrax LT inh: -2%

Results for CCOC(=O)CCN(Cc1cccs1)S(=O)(=O)c1ccc(F)cc1 ?
Prx2 Sm inh: >57

How did O=C(C1CCCN1C(=O)c1cccs1)N1CCc2ccccc21 (configuration not stated) do in these assays?
Anthrax LT inh: 23%; Prx2 Sm inh: >57

What do the screens show for `O=C(Cn1nc(C(F)(F)F)c2c1CCCCC2)N1CCOCC1`?
Anthrax LT inh: 1%; Prx2 Sm inh: >57

How did COc1ccccc1OC[C@H](O)CN1CCN(CC(=O)Nc2c(C)cccc2C)CC1 do in these assays?
Anthrax LT inh: -7%; Prx2 Sm inh: >57

Results for COc1ccc2[nH]c3ccccc3c2c1 ?
Anthrax LT inh: 27%; Prx2 Sm inh: >57

Results for COc1ccc(N2CCN(C(=O)CCNS(=O)(=O)c3ccc(Br)s3)CC2)cc1 ?
Anthrax LT inh: -3%; Prx2 Sm inh: >57

How did COc1ccc(C)cc1N(CC(N)=O)S(=O)(=O)c1ccc(C)cc1 do in these assays?
Anthrax LT inh: -7%

How did COC(=O)Cc1cnc(NC(=O)C2C3CCC(C3)C2C(=O)O)s1 (configuration not stated) do in these assays?
Anthrax LT inh: inconclusive; Prx2 Sm inh: >57

High-throughput results from PubChem.
